Assay outcomes from PubChem BioAssay.
YopH PTP inh: YopH tyrosine phosphatase inhibitors, primary screen, biochemical, fluorescence Ex485/Em525; AID 898, 2007; 140,000 compounds, 0.16% hits; inhibition, %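 (about 10 µM by stock and volumes)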;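 active means inhibition of 50% or more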;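 further: controls were vehicle for no effect and minimum signal wells for full effect; inactives centre near -20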
Mtb H37Rv: M. tuberculosis H37Rv growth inhibitors, H37Rv strain (AID 1626) | 220,000 compounds, 0.95% hits | M. tuberculosis H37Rv growth inhibition; higher % means a stronger effect | inhibition, % at 10 µM; hits with a dose series show IC50 in µM;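 active means confirmed in a dose series; inconclusive means inhibition above 80% but not taken into the dose series; inactive means below 80% or under 30% at every dose of the series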;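 further: bacteria incubated seven days before Alamar blue readout; 0% = bacteria only wells and 100% = bacteria with antibiotic wells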
Mtb betalactam: beta-lactam sensitization of Mtb H37Rv, H37Rv | AID 434955, 2010 | inhibition, % at 25 µM | 330,000 compounds, 0.27% hits | M. tuberculosis H37Rv growth with meropenem, percent inhibition; hits of this screen are not shown here;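 active means about 74% or more and at least 40 points above the plate without the antibiotic, then above 30% in a dose series; inconclusive means first-round hits that could not be retested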;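 further: growth measured after seven days incubation then overnight dye step; 0% = bacteria only wells and 100% = bacteria with antibiotic; twin plates without the antibiotic show which effects depend on it; some results filed as inactive read as strong as hits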
RecA intein inh: Mtb RecA intein splicing inhibitors, primary screen, biochemical, fluorescence, HTS; Protein RecA (Mycobacterium tuberculosis (strain ATCC 25618 / H37Rv)), P9WHJ3; cell-free RecA intein splicing; inhibition, %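 (about 9 µM by stock and volumes)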; 290,000 compounds, 0.75% hits; AID 2221, 2009; in the data active means inhibition above about 30%; inconclusive means no clear call, values can overlap the other calls;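 further: 0% = vehicle wells and 100% = reference inhibitor control wells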
Target sequence (P9WHJ3 whole entry, looked up): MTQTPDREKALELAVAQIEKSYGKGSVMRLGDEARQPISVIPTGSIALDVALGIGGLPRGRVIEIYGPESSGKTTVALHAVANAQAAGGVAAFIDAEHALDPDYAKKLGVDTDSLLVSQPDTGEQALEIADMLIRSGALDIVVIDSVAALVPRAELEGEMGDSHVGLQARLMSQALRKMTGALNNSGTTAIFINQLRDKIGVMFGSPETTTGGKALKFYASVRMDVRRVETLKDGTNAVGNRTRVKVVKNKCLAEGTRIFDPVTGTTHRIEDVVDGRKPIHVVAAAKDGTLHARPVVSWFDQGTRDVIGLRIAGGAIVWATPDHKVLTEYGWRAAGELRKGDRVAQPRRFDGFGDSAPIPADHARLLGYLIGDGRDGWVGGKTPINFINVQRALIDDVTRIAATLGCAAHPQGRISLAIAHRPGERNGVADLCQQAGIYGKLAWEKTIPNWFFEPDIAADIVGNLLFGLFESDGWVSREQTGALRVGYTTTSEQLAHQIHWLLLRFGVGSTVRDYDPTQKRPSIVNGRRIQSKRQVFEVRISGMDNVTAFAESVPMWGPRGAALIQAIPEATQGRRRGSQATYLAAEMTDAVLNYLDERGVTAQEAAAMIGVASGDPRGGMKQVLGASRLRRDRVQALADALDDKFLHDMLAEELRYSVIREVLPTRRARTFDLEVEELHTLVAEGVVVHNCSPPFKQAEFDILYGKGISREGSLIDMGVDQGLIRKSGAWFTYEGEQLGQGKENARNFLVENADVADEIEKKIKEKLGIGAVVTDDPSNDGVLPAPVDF
Arbovirus anti: antivirals against arbovirus infection, primary screen, cell-based, full library, 10K replicate subset; arbovirus infection cell-based antiviral screen; inhibition, % at 10 µM; 200,000 compounds, 0.37% hits;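 active means inhibition from about 30%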;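 further: bluetongue infection of BSR cells; cell survival read as ATP light after 72 h; 0% = infected wells without compound and 100% = uninfected wells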
Arbovirus anti repeat: further read-out of Arbovirus anti, marked with its call; inhibition, %; measured here: 10K subset replicate screen; many hits read low in the repeat;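 first of two repeat runs on a subset; 0% = infected and 100% = uninfected wells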
An asterisk follows results filed as active; u = inconclusive; x = no result given.

SMILES	YopH PTP inh	Mtb H37Rv	Mtb betalactam	RecA intein inh	Arbovirus anti	others
Fc1ccc(-c2cn3ccccc3n2)cc1	x	x	12	1.3	x
CC(Sc1ccc(Cl)cc1)C(=O)NCC1CCCO1 (centres undefined)	-9	-3%	-10	-0.4	-1
CCN1CCCc2cc(CN(CCN3CCOCC3)C(=S)Nc3ccccc3C)ccc21	x	3%	-1	-3.4	-5
CCOC(=O)C1CCN(C(=O)CCc2nnc3ccc(NCc4ccco4)nn23)CC1	x	x	4	-0.1	x
NC(N)=N/N=C/c1ccc(Cl)c(Cl)c1	x	12%	-8	0.7	x
CCOC(=O)C1=C(CC)Nc2ccccc2N=C1NC(=O)c1cc(S(=O)(=O)N(C)C)ccc1Cl	-22	5%	-2	-4.0	8
Cc1ccc(C)c(NP(=O)(Oc2ccccc2)Oc2ccccc2)c1	x	x	8	-4.8	x
Cc1cc(NC(=O)CSc2nnnn2-c2ccccc2F)no1	x	x	-6	-1.9	x
CC(C)[C@H](NC(=O)Cc1ccccc1)C(=O)OCc1cc(=O)n2c(n1)sc1ccccc12	-30	1%	4	-0.6	-8
C/C(=N\NC(=O)CSc1nc2nc(C)cc(C)n2n1)c1ccccc1	-11	-2%	-7	-2.1	5
Cc1cccc(OCCCC(=O)Nc2ccc(N3CCOCC3)cc2)c1	-19	-1%	-12	1.6	1	Arbovirus anti repeat=-2
NC(=O)NC(=O)CSc1nnc(-c2ccco2)n1Cc1ccccc1	-119	-3%	9	-0.6	4
COc1ccc(C(=O)Nc2ccccc2C(=O)NCC2CCCO2)cc1 (centres undefined)	x	x	-8	-2.3	x
COc1ccc(/C=C/C(=O)NCCN2CCOCC2)cc1OC	x	-14%	-4	0.4	7
CC(C)(C)NC(=O)c1ccc(Sc2ccccc2)c([N+](=O)[O-])c1	-31	-13%	-2	5.8	-3
Cc1cc(N2CC(=O)N(CCc3ccccc3)C(=O)C2)n2ncnc2n1	-31	-7%	-27	0.2	9
Cc1ccc(C(=O)CC(=O)c2ccccc2C)c(O)c1	x	x	u	9.3	x
Cc1ccc(C(=O)N2CC=C(c3ccccc3)CC2)s1	x	x	-7	4.0	x
Clc1cc(Br)ccc1OCCOCCN1CCCC1	x	x	-26	0.8	x
CCc1cccc(C)c1NC(=S)N(CCN(C)C)C(C)c1ccco1 (centres undefined)	x	-4%	-5	-0.2	x
Cc1ccc(S(=O)(=O)Cc2ccccc2Cl)cc1	-12	3%	3	0.2	-3
O=C(O)c1cccnc1Cl	-41	-4%	5	0.6	-7
CCO[C@@H]1OC(C(=O)NCc2ccccc2)=C[C@H](c2coc3ccccc3c2=O)[C@H]1CCCO	x	x	-5	2.4	2
CCOC(=O)c1[nH]c2ccccc2c1NC(=O)c1ccc(S(=O)(=O)N2CCOCC2)cc1	-41	x	1	-2.5	3
O=C(NCc1ccccc1)c1cccc(Br)n1	-32	-7%	-11	0.8	1
Cc1c(C)c2ccc(OCC(=O)Nc3ccccn3)cc2oc1=O	x	x	-5	-1.4	x
NC(=O)c1cc2ccccc2o/c1=N/NC(=O)c1cccc(F)c1	x	x	3	2.1	x
COc1ccc(C(=O)OCCCOC(=O)c2ccc(OC)cc2OC)c(OC)c1	x	x	-4	0.8	x
CCOC(=O)C1CCN(CCC(=O)Nc2ccccc2Cl)CC1	-10	0%	7	-1.6	5
Nc1ccc(OC(=O)Nc2ccc(O)cc2)cc1	x	-14%	5	-7.6	x
O=C1N(Cc2cccc(Cl)c2)C[C@@H]2C[C@@H](c3ccc4nonc4c3)N3CCC[C@@]123	x	-1%	3	1.5	-10
COCCCNC(=S)Nc1ccc(CC(=O)O)cc1	-28	-5%	-1	-2.9	-3
COc1ccccc1-c1c(-c2ccc(OCC(=O)NN)cc2O)n[nH]c1C(F)(F)F	-27	-6%	2	2.7	-5
O=C(NN1CCN(Cc2ccccc2)CC1)c1ccc(N2CCOCC2)c([N+](=O)[O-])c1	x	4%	3	-0.6	-2
Cc1cccc(NC(=O)C2CCN(C(=O)c3ccco3)CC2)c1C	x	x	-1	-0.9	x
COc1cc(OC)c(S(=O)(=O)Nc2ccc(C(=O)N3CCCC3)cc2)cc1NC(C)=O	x	-5%	-2	8.2	2
CC(=O)Nc1cc(C(=O)OCC(=O)c2ccccc2)ccc1C	-31	-1%	3	-1.1	-4
Cc1c(Nc2nc(-c3ccccc3)cs2)c(=O)n(-c2ccccc2)n1C	-24	3%	-7	-2.5	4
O=C(NCc1cccs1)C(=O)NCC(c1ccco1)N1CCN(c2ccc(F)cc2)CC1 (centres undefined)	x	8%	-5	1.7	4
Cc1sc2nc(CN3CCN(c4ccc(O)cc4)CC3)[nH]c(=O)c2c1C	x	4%	-6	-6.0	x
O=[N+]([O-])c1cc([N+](=O)[O-])c2cc3ccccc3nc2c1	x	x	100	93*	x
Cc1ccc(CNC(=O)CSc2nnc3c(n2)[nH]c2ccccc23)cc1	x	x	5	-0.5	x
CCn1cc(C2=NC(CCSC)CO2)c2ccccc21 (centres undefined)	x	43%	-2	-2.1	16
Cn1c(N2CCN(c3ccccn3)CC2)nc2c1c(=O)n(Cc1ccccc1Cl)c(=O)n2C	0	-2%	-7	2.1	x
Cc1ccc(/C=N/NC(=O)Cc2ccc(Cl)cc2)s1	x	x	-2	0.9	x
O=C(Nc1cccc([N+](=O)[O-])c1)Nc1cccs1	x	-3%	-6	x	10
CN(C)CCCNCCCNC(=O)/C(=N\O)c1ccccn1	-13	0%	-8	-3.2	5	Arbovirus anti repeat=-1
O=S(=O)(NCC(c1ccco1)N1CCc2ccccc2C1)c1ccc(Br)cc1 (centres undefined)	x	x	-15	6.6	x
CC(C)NC(=O)c1cc2c(C(F)(F)F)nn(C)c2s1	-23	0%	-5	-3.2	-9
COCCN1CC(=O)N2C(c3cccc(OC)c3)c3[nH]c4ccccc4c3C[C@H]2C1=O (some centres undefined)	x	x	-6	0.3	x
Cc1onc(-c2c(Cl)cccc2Cl)c1C(=O)NC(C)(C)CO	0	-3%	-5	-3.2	11
O=C(CSCc1ccccc1Cl)Nc1ccc(C(=O)O)cc1	x	x	-5	0.5	x
Cc1cc(C)c(-c2cc(NC(=O)CSc3nncn3C)n(-c3ccccc3)n2)cc1C	-31	6%	8	1.7	4
O=C(OCC(=O)N1CCN(S(=O)(=O)c2ccccc2)CC1)c1ccc([N+](=O)[O-])o1	x	-5%	65	-2.6	8
O=C(N/N=C/c1ccccc1C(=O)O)c1cc(-c2ccc3c4c(cccc24)CC3)n[nH]1	x	-2%	3	6.4	-15
COc1cc(OC)cc(-c2nc(-c3ccccc3)no2)c1	-15	5%	-2	1.9	7
COc1cc(/C=C/C(=O)N[C@@H](Cc2c[nH]c3ccccc23)C(=O)O)ccc1O	x	x	-3	-2.2	x
O=c1[nH]c2ccc(NC(=S)NCCc3ccccc3)cc2[nH]1	x	6%	2	-1.1	x
COc1cc(C)ccc1OCCOCCOc1c(C)cc(C)cc1Br	-34	-9%	-2	15	14
CN(C)Cc1cnc2ccc(Cl)cn12	-12	-13%	2	1.0	-4

By substructure, the entries above containing an NH in an aromatic ring
SMILES	YopH PTP inh	Mtb H37Rv	Mtb betalactam	RecA intein inh	Arbovirus anti	others
CCOC(=O)c1[nH]c2ccccc2c1NC(=O)c1ccc(S(=O)(=O)N2CCOCC2)cc1	-41	x	1	-2.5	3
COc1ccccc1-c1c(-c2ccc(OCC(=O)NN)cc2O)n[nH]c1C(F)(F)F	-27	-6%	2	2.7	-5
Cc1sc2nc(CN3CCN(c4ccc(O)cc4)CC3)[nH]c(=O)c2c1C	x	4%	-6	-6.0	x
Cc1ccc(CNC(=O)CSc2nnc3c(n2)[nH]c2ccccc23)cc1	x	x	5	-0.5	x
COCCN1CC(=O)N2C(c3cccc(OC)c3)c3[nH]c4ccccc4c3C[C@H]2C1=O (some centres undefined)	x	x	-6	0.3	x
O=C(N/N=C/c1ccccc1C(=O)O)c1cc(-c2ccc3c4c(cccc24)CC3)n[nH]1	x	-2%	3	6.4	-15
COc1cc(/C=C/C(=O)N[C@@H](Cc2c[nH]c3ccccc23)C(=O)O)ccc1O	x	x	-3	-2.2	x
O=c1[nH]c2ccc(NC(=S)NCCc3ccccc3)cc2[nH]1	x	6%	2	-1.1	x

Other entries
SMILES	YopH PTP inh	Mtb H37Rv	Mtb betalactam	RecA intein inh	Arbovirus anti	others
COc1ccc(C2=NS(=O)(=O)N(C)C(C(=O)NCc3ccc(F)cc3)=C2)cc1OC	x	x	1	0.8	x
CCCCOC(=O)c1ccc(N/C(=N\S(=O)(=O)c2ccccc2)c2ccccc2)cc1	-28	-1%	-4	7.9	2
COc1ccc(-c2nc(CN3CCN(Cc4cccc(F)c4)CC3)c(C)o2)cc1	x	x	-2	0.4	x
CCc1cc2c(=O)c(-c3nc4ccccc4n3C)c(COCC(=O)O)oc2cc1O	-26	-10%	9	x	1
Cc1[nH]nc(-c2ccc(O)cc2O)c1-c1ccc(Cl)cc1	-37	2%	-14	5.2	-25
Cc1ccc(-c2noc(CN(C)C(=O)c3ccc(Br)o3)n2)cc1	x	x	-8	5.4	x
CSc1nnc2c3ccccc3n(Cc3ccccc3)c2n1	13	3%	-11	0.2	3
Cc1ccccc1OCCCN1CCOCC1	x	x	-7	3.0	x
O=C(CCN1C(=O)/C(=C\c2cccc(Br)c2)SC1=S)N1CCOCC1	x	x	8	-0.6	x
CCOC(=O)c1cnc(SCC(=O)OCC(=O)NC2CCS(=O)(=O)C2)nc1N (centres undefined)	x	x	-9	0.8	x
Cc1cc2ccc(C)c(C)c2nc1SCC(=O)c1cccs1	-53	-4%	55	3.3	-14
CCCC(=O)Nc1ccc(Cl)c(NC(=O)c2cccnc2)c1	-17	8%	13	-5.9	2
Cc1ccc(C)n1CCN1CCN(CC(=O)Nc2ccc(S(N)(=O)=O)cc2)CC1	5	-5%	-5	1.2	1
CCCC(=O)Nc1ccc(Cl)c(NC(=O)c2ccc([N+](=O)[O-])cc2Cl)c1	-21	-1%	3	1.7	-6
Cc1noc(C(=O)Nc2ccccc2C(F)(F)F)c1Cl	-46	-4%	-6	5.1	-3
O=C(NCc1cccs1)c1nc(-c2cccs2)no1	x	10%	0	1.2	-7
CO/N=C/C(=N\Nc1ccc(OC)cc1)C(=O)c1ccc(OC)cc1	-14	8%	-2	-3.2	-2
CC(=O)N1CCN(CC(O)COc2ccc(Br)cc2)CC1 (centres undefined)	x	x	-1	0.1	x
CCCc1cc(=O)oc2cc(OCC(=O)NC3CCN(Cc4ccccc4)CC3)ccc12	x	x	-10	-2.4	x
O=c1c(C(c2ccc(F)cc2)c2c(O)nc3n(c2=O)CCCS3)c(O)nc2n1CCCS2	x	-10%	3	-1.1	x

Sorted by number of heavy atoms (ascending): 3 of the compounds above.
SMILES	YopH PTP inh	Mtb H37Rv	Mtb betalactam	RecA intein inh	Arbovirus anti	others
Cc1noc(C(=O)Nc2ccccc2C(F)(F)F)c1Cl	-46	-4%	-6	5.1	-3
CC(=O)N1CCN(CC(O)COc2ccc(Br)cc2)CC1 (centres undefined)	x	x	-1	0.1	x
O=c1c(C(c2ccc(F)cc2)c2c(O)nc3n(c2=O)CCCS3)c(O)nc2n1CCCS2	x	-10%	3	-1.1	x

Two records picked at random from those above, as already listed:
SMILES	YopH PTP inh	Mtb H37Rv	Mtb betalactam	RecA intein inh	Arbovirus anti	others
O=C(NCc1cccs1)c1nc(-c2cccs2)no1	x	10%	0	1.2	-7
CC(=O)N1CCN(CC(O)COc2ccc(Br)cc2)CC1 (centres undefined)	x	x	-1	0.1	x

A portion of the library (hit frequency here may not be typical).
